# VACV Venus inh – vaccinia inhibition (Venus reporter). Vaccinia virus Venus reporter expression, fluorescence. Potency, µM (titrated, usually from 36.5 µM), for the others: top-dose activity change, negative = inhibition, actives largely listed as inhibitors. actives 0.46% (n = 330,000); active means well fitted inhibition curve with a large enough effect; inconclusive means small, poorly fitted or top-dose-only effect; inactive means no such curve, though single readings can be large or run the other way; tested in A549 cells; also: nearly all actives have a fitted effect of over 30% in size; inactives centre near -10
# Vaccinia mCherry – inhibitors of vaccinia virus infection (mCherry reporter signal); Vaccinia virus mCherry reporter infection, fluorescence; about a quarter of the inactives have no number; Potency, µM (doses to about 36.5 µM), for the others: at the top dose activity change, negative = inhibition, actives largely listed as inhibitors; actives 0.63% (n = 310,000); active = well fitted inhibition curve with a large enough effect; inconclusive = small, poorly fitted or top-dose-only effect; inactive = no such curve, though single readings can be large or run the other way; tested in A549 cells; also: nearly all actives have a fitted effect of over 35% in size; inactives centre near -10
# Active calls of the source: *; i = inactive; ? = inconclusive; · = no result given; & = joins results of further samples; [ ] = remark or other dose. % is scaled to controls: 0 for no effect and ±100 for the full control effect; potency is read from the fitted curve at half-maximal effect. Hits appear at their usual frequency. About 0.87% of those tested had a hit in this group.
smiles,VACV Venus inh,Vaccinia mCherry
O=C(c1ccc(Cl)s1)N(Cc1nnc(-c2ccccc2Cl)o1)C1CC1,-15%,-14%
O=C(Nc1ccccc1F)c1cnccn1,-4%,3%
CN(C(=O)CSc1nnc(-c2ccccc2F)n1N)C1CCCCC1,-3%,-14%
CC1CC(=O)Nc2ccccc2N1S(=O)(=O)c1cccs1 (configuration not stated),-15%,-15%
CC(=O)NCCNC(=O)c1cnn(-c2nccc(-c3cc(C)sc3C)n2)c1C,-7%,-4%
CC1=C(C(=O)N2CCOCC2)CC(CC(=O)NC2CCCCC2)C(=O)N1Cc1ccc(F)cc1 (configuration not stated),-8%,-5%
C/C(CC(=O)NCc1ccc(Cl)cc1)=N\NC(=O)c1ccccc1F,-15%,-2%
NC(=O)CCN1CCN(Cc2cn[nH]c2-c2cccc3ccccc23)CC1,-10%,-19%
COC(=O)C1(C)CCc2c(ccc3ccccc23)C1=O (configuration not stated),-2%,i
CN(Cc1ccccc1)c1ccc(-c2nc(-c3cccnc3)no2)cc1[N+](=O)[O-],0%,-4%
Cn1c(=O)c2ncn(CC(=O)NCCOCc3ccccc3Cl)c2n(C)c1=O,-5%,-24%
Cc1cc(-n2c(C)cc(C(=O)CSc3nncn3C)c2C)no1,-15%,i
COc1ccccc1N/C(N)=N/c1nc(C(F)(F)F)cc(=O)[nH]1,-14%,i
CCO[C@@H]1OC(C(=O)Nc2ccccc2)=C[C@H](c2ccccc2)[C@H]1CCCO,-1%,25%
CCOC(=O)/C=C1\SCC(=O)N1CC(=O)NCc1cccc(Cl)c1,-1%,-6%
O=C(Oc1ccccc1N1CCOCC1)c1ccccc1,-2%,-12%
CC(=O)Nc1ccc(C(=O)NC2CCSc3ccccc32)cc1 (configuration not stated),3%,-11%
Cc1ccc(NS(=O)(=O)c2cccc(C(=O)N3CCOCC3)c2)cc1,-12%,·
COc1ccccc1C(O)c1ncc(-c2cccc(C(F)(F)F)c2)[nH]1 (configuration not stated),-15%,i
CC(C)NC(=O)C1(C)Cc2c(-c3cccc(C(F)(F)F)c3)ccnc2O1 (configuration not stated),-8%,-18%
Cc1ccc(NC(=O)CCn2cc(C(F)(F)F)ccc2=O)cc1,-22%,-26%
Cc1ccccc1Nc1c(-c2ccc(N3CCOCC3)cc2)nc2ncccn12,-4%,-15%
Cc1cc(C)nc(NS(=O)(=O)c2ccc(N=Cc3c(C)[nH]n(-c4ccccc4)c3=O)cc2)n1,1%,-13%
CCC(=O)N1CCC1(C)C(=O)Nc1ncc(C)s1 (configuration not stated),-4%,4%
Cc1ccc(N(CC(=O)NCc2ccncc2)S(C)(=O)=O)cc1,1%,·
CC(=O)Nc1ccc(NC(=O)C(C)OC(=O)c2ccc3[nH]c(C)c(C)c3c2)cc1 (configuration not stated),-20%,?
COc1ccc(NC(=O)Nc2cccc3c2O[C@H](CN(C)S(=O)(=O)c2ccccc2)[C@@H](C)CN([C@H](C)CO)C3=O)cc1,-16%,-3%
COc1ccc(S(=O)(=O)NC(=O)C2(C)CCN2C(=O)CC2CCCC2)cc1 (configuration not stated),-8%,-2%
Cc1ccc2c(C)ccnc2c1,-8%,-18%
Cc1ccc(CNC(=O)COC(=O)c2cnc(C)cn2)cc1,-13%,i

# Complete entries, quoted from the list.
# CC(=O)NCCNC(=O)c1cnn(-c2nccc(-c3cc(C)sc3C)n2)c1C in the list: VACV Venus inh: -7%; Vaccinia mCherry: -4%
# Cc1ccc(N(CC(=O)NCc2ccncc2)S(C)(=O)=O)cc1 in the list: VACV Venus inh: 1%; Vaccinia mCherry: ·

# Two consecutive compounds out of the list so far, for reference:
smiles,VACV Venus inh,Vaccinia mCherry
O=C(c1ccc(Cl)s1)N(Cc1nnc(-c2ccccc2Cl)o1)C1CC1,-15%,-14%
O=C(Nc1ccccc1F)c1cnccn1,-4%,3%

# (further entries)
smiles,VACV Venus inh,Vaccinia mCherry
Cn1cc(/C=C2\SC(=S)N(NC(=O)c3cccc(Cl)c3)C2=O)c2ccccc21,-3%,-8%
CN(C)C1CN(Cc2cn(Cc3cccc(Cl)c3)nn2)S(=O)(=O)C1 (configuration not stated),-2%,i
Cc1cccc(C)c1OCCOCCN1CCN(C)CC1,-3%,-11%
CCOC(=O)C1CCN(C(=O)CCCNC(=O)Cn2cnc3sc(C)c(C)c3c2=O)CC1,2%,-12%
CN(C)CCNC(C(=O)Nc1cccc(C(F)(F)F)c1)c1ccccc1 (configuration not stated),-10%,i
COc1c2occc2c(OC)c2c(=O)cc(C)oc12,-13%&-18%,-19%
Cc1csc(Sc2ccc(C(=O)OCC(=O)Nc3ccc(F)cc3[N+](=O)[O-])cc2[N+](=O)[O-])n1,-3%,-8%
CCO/C=C1/C(=O)N(Cc2ccccc2)C(=O)c2ccccc21,-13%,-9%
CC(=O)Oc1ccc2nc(CN3C(=O)c4ccc([N+](=O)[O-])cc4C3=O)oc(=O)c2c1,0%,-1%
COc1ccc(OC)c(/C=C(/C#N)c2nc(-c3ccc(-c4ccccc4)cc3)cs2)c1,-13%,-15%
CCc1noc(C)c1C(=O)N1CCCC1,-15%,-12%
CC(=O)Nc1ccc(S(=O)(=O)NC(CC(=O)NCCc2ccccc2)C(C)C)cc1 (configuration not stated),-6%,-1%
CCOC(=O)N1CCN(c2c(NCCCN(CC)Cc3ccccc3)c(=O)c2=O)CC1,-11%,-22%
CCn1cc(C(=O)NCc2ccccc2Cl)c(=O)c2cc(S(=O)(=O)N3CCc4ccccc4C3)ccc21,-7%,-19%
Cc1ccc(Cn2c(SCC(=O)C(C)(C)C)nc3ccsc3c2=O)cc1,-8%,-9%
CCOC(=O)Cn1cc([N+](=O)[O-])c(OC)n1,-19%,·
O=C1NC(=O)C2(Cc3c(nc4ccccn4c3=O)N3CCCCCC32)C(=O)N1Cc1ccccc1 (configuration not stated),-7%,-11%
CCOC(=O)Cc1nc2cc(Cl)ccc2o1,7%,17%
CCN(CC)S(=O)(=O)c1ccc(/C(O)=C2/C(=O)C(=O)N(CCOC)C2c2ccccc2)cc1 (configuration not stated),7%,·
CC1CC(C)CN(CCCSc2ccccc2)C1 (configuration not stated),-15%,-23%
O=C(Nc1ccccc1F)Nc1cccnc1Cl,-6%,-12%
COCCn1c2nc(=O)n(-c3ccccc3)c(=O)c-2nc2ccccc21,?,?
O=C(CC[C@H]1O[C@@H](n2ccc(=O)[nH]c2=O)[C@H](O)[C@@H]1O)NC1CCN(Cc2ccccc2)C1 (some centres not stated),5%,1%
CC(C)NC(=O)c1cc(C2CCCCN2S(=O)(=O)c2ccccc2)on1 (configuration not stated),-6%,49%[activator]
NC(=O)C1(N2CCCCC2)CCN(C(=O)CSc2nc3ccccc3s2)CC1,6%,0%
CCN1CCc2c(sc(-n3cccc3)c2C(C)NC(=O)Nc2ccccc2C)C1 (configuration not stated),-7%,-6%
COc1cc(C=O)ccc1Oc1nc(Nc2ccc(F)cc2F)nc(N2CCOCC2)n1,0%,-5%
CCOC(=O)C1CCCN(C(=O)Cn2ncc3c([nH]c4ccc(C)cc43)c2=O)C1 (configuration not stated),-1%,0%
O=S1(=O)CCN(OCc2ccc(F)cc2Cl)CC1,-14%,-1%
O=C(NC(=S)Nc1cccc2cc(O)ccc12)c1ccccc1Br,-17%,-6%

# A draw from above in order of length of the SMILES, descending.
smiles,VACV Venus inh,Vaccinia mCherry
CCOC(=O)C1CCN(C(=O)CCCNC(=O)Cn2cnc3sc(C)c(C)c3c2=O)CC1,2%,-12%
CC(=O)Nc1ccc(S(=O)(=O)NC(CC(=O)NCCc2ccccc2)C(C)C)cc1 (configuration not stated),-6%,-1%
O=S1(=O)CCN(OCc2ccc(F)cc2Cl)CC1,-14%,-1%

# Next entries:
smiles,VACV Venus inh,Vaccinia mCherry
COc1ccccc1-c1noc(-c2ccccc2)n1,0%,-2%
CC(=O)Nc1ccc2ccc3cccc4ccc1c2c34,?,·
COCCNC(=O)C1(C)CCN(C(=O)COc2ccc(Cl)cc2Cl)C1 (configuration not stated),-9%,9%
N#C/C(=C/c1ccc(N2CCOCC2)o1)c1ccc(Br)cc1,32%[activator],·
C=CCSc1nnc2n(CCc3ccccc3)c(=O)c3c4c(sc3n12)COC(C)(C)C4,-8%,·
CCCCOc1ccc(C(=O)NN2CCOCC2)cc1,-4%,-6%
O=C(O)CCC(=O)OCCCc1cc2ccccc2c(=O)o1,-11%,-12%
CN(C)S(=O)(=O)c1ccc2c(c1)nc(CCC(=O)Nc1ccc(N3CCOCC3)cc1)n2C,-1%,-3%
O=c1c(-c2ccco2)nc2ccccc2n1C(c1ccccc1)c1nc2ccccc2[nH]1 (configuration not stated),-16%,?
Cc1cc(C(=O)OCC(=O)c2cccc([N+](=O)[O-])c2)c2ccccc2n1,-9%,-4%
Cc1ccccc1OCC(=O)Nc1ccc2nc(SCC(N)=O)sc2c1,-10%,i
Cc1ccc(C2Nc3ccccc3-c3nc4ccccc4n32)o1 (configuration not stated),-22%,-27%
Nc1cc2c([N+](=O)[O-])cccc2o1,-5%,·
CCOC(=O)C1CCN(C(=O)CSc2ccccc2Cl)CC1,-12%,-7%
O=C(COc1ccc2ccc(=O)oc2c1)NC(Cc1ccc(Cl)cc1)C(=O)O (configuration not stated),2%,-10%
Cc1cccc(S(=O)(=O)c2c(C)cc(C)[nH]c2=O)c1,-7%,-22%
CCCc1c(C)c2cccc(C)c2[nH]c1=O,-19%,·
CC(C)c1onc(C(=O)Nc2sc3c(c2C#N)CCC3)c1[N+](=O)[O-],-11%,-26%
Cc1cccc(NC(=O)c2cnc3ccccn3c2=O)c1,4%,19%
CCC1CCCCN1CCCNC(=O)c1c(O)nc2ccccn2c1=O (configuration not stated),3%,2%
C#CCSc1nncn1C(=O)/C=C/c1ccccc1,-16%,i
CC1CCc2nc3ccc(S(=O)(=O)N4CCC(C(=O)N5CCCCC5)CC4)cc3c(C(=O)O)c2C1 (configuration not stated),0%,11%
COc1ccc(CN(C(=O)c2ccco2)C2CCS(=O)(=O)C2)cc1 (configuration not stated),-11%,i
Cc1c(NC(=S)NC(=O)c2ccccc2Br)c(=O)n(-c2ccccc2)n1C,-7%,-15%
O=c1[nH]c2cc([N+](=O)[O-])ccc2c2ccc([N+](=O)[O-])cc12,-4%,-22%
CC1CN(CCN2CC(C)N(C=O)CC2C)C(C)CN1C=O (configuration not stated),-15%,-10%
CN(C)S(=O)(=O)c1ccc(S(=O)(=O)Nc2ccc3c(c2)oc2ccccc23)cc1,-8%,-17%
COc1cc2nc(N3CCN(C(=O)[C@@H]4CCCO4)CC3)nc(N)c2cc1OC,-18%,i
COCCCNC(=O)CSc1nc2cc(S(=O)(=O)N3CCCCC3)ccc2o1,?,?
COc1ccc(Cn2c(-c3ccc(OC)c(O)c3)nc3ccccc32)cc1O,-24%,-1%
Cc1c2ccccc2nc2c(F)c(NCCO)c(F)c(F)c12,-2%,-1%
Cc1cc(NC(=O)CSc2n[nH]c(N)n2)no1,2%,i
Cc1n[nH]c(=O)nc1NC1CCCCC1,-9%,·
Cc1ccccc1Nc1nc(N)nc(COC(=O)c2ccco2)n1,-7%,i
CSCCC(=O)Nc1nc(-c2ccccn2)cs1,-11%,i
Cc1cc2n(n1)CCCN2C(=O)Nc1ccc(Cl)cc1,2%,-10%
NC(=O)c1ccc(SCC(=O)OCC(=O)N2CCCC2=O)c([N+](=O)[O-])c1,-2%,-14%
COc1ccc(CNS(=O)(=O)NCc2ccc(OC)c(OC)c2)cc1,-21%,?
Cc1ccc(C)c(NC(=O)CSc2nnc(CNC(=O)c3ccccc3)n2-c2ccccc2)c1,10%,5%
Cc1cn(S(=O)(=O)c2ccc(F)c(Cl)c2)cn1,-2%,-11%
CCOC(=O)c1cccc(NS(=O)(=O)c2cc3[nH]c(=O)c(=O)[nH]c3cc2C)c1,-3%,-4%
Cc1ccc(N(Cc2cccs2)C(=O)c2ccco2)cc1,-1%,-5%
O=C(N/N=C1\CCCc2ccccc21)c1cccc(Br)c1,-9%,-4%
COc1ccc(CC2c3cc(OC)c(OC)cc3CC[N+]2(C)CCC(=O)OCCCCCOC(=O)CC[N+]2(C)CCc3cc(OC)c(OC)cc3C2Cc2ccc(OC)c(OC)c2)cc1OC (configuration not stated),?,16µM*
O=C(Cc1ccccc1)NCCS(=O)(=O)N1CCN(c2ccccc2)CC1,-12%,0%
CC(=O)Nc1ccc(NC(=O)C2CC(=O)N(c3cccc(C)c3C)C2)cc1 (configuration not stated),-3%,·
OCCCNC(=S)Nc1ccc(Br)cc1Cl,-22%,-2%
O=C(Cc1ccccc1)NNC(=O)c1cnccn1,3%,-10%
CCN(Cc1ccccc1)C(=O)c1cnn(-c2ccc(F)cc2)c1-n1cccc1,4%,-5%
CCOc1ccc(CNS(=O)(=O)c2cc(-c3cc(C)no3)ccc2C)cc1OC,-6%,-3%
Cc1csc(NC(=O)CSc2[nH]c(=O)ncc2C)n1,-5%,-7%

# Screening data from PubChem BioAssay.
